Assay outcomes: PubChem, National Center for Advancing Translational Sciences (NCATS)
CBFb RUNX1 block = inhibitors of human CBF-beta and RUNX1 interaction. Q01196+Q13951. AlphaScreen CBFb-His/RUNX1-biotin binding, biochemical. Potency, µM (doses to about 59.8 µM), for the others: at the top dose activity, negative = inhibition, hits mostly inhibitors. 230,000 tested, under 10 active. AID 1477; further: % of control where 0% means no effect
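Bead-based AlphaScreen assay; binding partners His-tagged CBF-beta and biotinylated RUNX1 at 30 nM each. Compound exposure 15 min after a 20-min protein preincubation; bead step 90 min; all steps at room temperature.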
IMPase Li cell = cell-permeable IMPase inhibitors with lithium potentiation; CHO-M1 cells, IP1 TR-FRET (IP-One), carbachol + lithium; Potency, µM (series often up to 59.4 µM), without a hit: top-dose activity, negative = IMPase inhibition, most hits filed as inhibitors; hit rate 0.35% among 210,000; AID 1457;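 further: IP1 builds up when IMPase is blocked and the TR-FRET signal falls; potency means the concentration at half of the fitted maximal effect; plate controls were basal vehicle for no effect and high inhibitor control for full effect; nearly all actives have a fitted effect of over 50% in size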
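Concentration–response in CHO-M1 cells, lithium-potentiated; 30 min at 37C. IP1 detected by competitive TR-FRET after 10 min lysis at RT. Hill-fitted AC50.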
Epigenetic reg = epigenetic control regulation, reporter derepression. murine LDR cells, GFP reporter derepression, 30 h. hit rate 0.2% among 280,000. Potency, µM (series often up to 53.9 µM), without a hit: at the highest dose GFP activation, most hits filed as activators; further: potency means the concentration at half of the fitted maximal effect; % of control where 0% means no effect; nearly all actives have a fitted effect of over 60% in size
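Derepression of a silenced CMV-GFP reporter in murine LDR cells is scored by enumerating GFP-positive cells with a laser-scanning microplate cytometer after 30 hours of treatment at 37 C.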
NPSR antagonist = blocks cAMP signaling of the human neuropeptide S receptor | Potency, µM (highest dose often 38.3 µM), for the others: at the top dose activity change, negative = inhibition, usual class: inhibitors | hit rate 1% among 220,000 | Q6W5P4 | CHO-NPSR cells, cAMP TR-FRET, antagonist mode; further: potency means the concentration at half of the fitted maximal effect; on the % scale 0 is the no-effect control and ±100 the full control effect; nearly all actives have a fitted effect of over 50% in size; many of its hits are not listed in these tables
Target sequence (Q6W5P4 whole entry, looked up): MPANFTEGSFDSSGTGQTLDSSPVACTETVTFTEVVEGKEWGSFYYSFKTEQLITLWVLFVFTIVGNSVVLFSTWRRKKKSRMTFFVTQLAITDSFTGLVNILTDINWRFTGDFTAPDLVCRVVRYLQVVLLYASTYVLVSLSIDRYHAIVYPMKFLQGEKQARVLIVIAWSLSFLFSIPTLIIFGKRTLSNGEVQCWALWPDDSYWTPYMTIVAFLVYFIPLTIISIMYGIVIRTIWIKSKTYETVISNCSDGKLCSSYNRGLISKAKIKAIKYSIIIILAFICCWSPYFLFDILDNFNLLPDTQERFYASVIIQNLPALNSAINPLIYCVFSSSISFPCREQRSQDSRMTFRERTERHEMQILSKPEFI
Starred values were filed as active, the others as inactive; ? = inconclusive; . = no result given; & = joins results of further samples; [ ] = another dose, or the depositor's remark. The call rests on the fitted dose curve; in most records, active means well fitted curve in the direction sought with a large enough effect; inconclusive means small, poorly fitted or top-dose-only effect, or another doubt; inactive means no such curve, though single readings can be large; an effect the other way counts as inactive or inconclusive.

#	compound	CBFb RUNX1 block	IMPase Li cell
1	O=C1OC(C(O)CO)C(O)=C1O (centres undefined)	6.7%	5.0%
2	NC(=O)c1cc[n+](CC2=C(C(=O)[O-])N3C(=O)[C@@H](NC(=O)Cc4cccs4)[C@@H]3SC2)cc1	14.8%[21.7 µM]	-4.2%
3	CC[N+](C)(C)Cc1ccccc1Br	6.9%	11.3%&8.4%&-8.4%
4	O=C(Nc1ccc([N+](=O)[O-])cc1Cl)c1cc(Cl)ccc1O	-0.6%	20.3%&13.4%&15.9%
5	O=C(O)c1cc(=O)c2c(OCC(O)COc3cccc4oc(C(=O)O)cc(=O)c34)cccc2o1	-0.7%	3.2%&3.8%&0.0%&7.7%&1.8%
6	Cc1ccc(-c2nnc(Nc3ccccc3)o2)cc1	2.5%	-12.1%[38.3 µM]
7	C#C[C@@]1(OC(C)=O)CC[C@@H]2[C@@H]3CCC4=C[C@@H](OC(C)=O)CC[C@H]4[C@H]3CC[C@]21C	3.3%[21.7 µM]	3.6%
8	CCCC(=O)Nc1ccc(OCC(O)CNC(C)C)c(C(C)=O)c1 (centres undefined)	1.7%&6.8%	-4.9%&15.9%
9	CC[N+](C)(C)c1cccc(O)c1	13.2%	6.0%&8.2%&12.9%&3.5%
10	CC(C)(C#N)c1cc(Cn2cncn2)cc(C(C)(C)C#N)c1	2.8%	.

#	Epigenetic reg	NPSR antagonist
1	0.0%	.
2	1.4%[16.9 µM]	.
3	-1.7%	19.4%
4	-1.2%	-13.8%[46.1 µM]
5	0.2%	-3.2%
6	-1.4%	-11.7%[46.1 µM]
7	1.0%[16.9 µM]	.
8	-2.6%&2.7%	9.0%
9	-4.5%	19.8%
10	1.1%	23.6%

Later entries:
#	compound	CBFb RUNX1 block	IMPase Li cell
11	CC(=O)OCC(=O)[C@@]1(O)CCC2C3CCC4=CC(=O)C=CC4(C)C3C(O)C[C@]21C (some centres undefined)	12.4%	5.8%
12	C[C@@H]1[C@H](O)[C@@H](C)/C=C/C=C/C=C/C=C/C=C/C=C/C=C/[C@H](O[C@@H]2O[C@H](C)[C@@H](O)[C@H](N)[C@@H]2O)C[C@@H]2O[C@](O)(C[C@@H](O)C[C@@H](O)[C@H](O)CC[C@@H](O)C[C@@H](O)CC(=O)O[C@H]1C)C[C@H](O)[C@H]2C(=O)O	13.5%[21.7 µM]	-10.5%
13	Cn1c(=O)c(NCCO)c2c3c(cccc31)C(=O)c1ccccc1-2	20.5%	-29.6%[38.3 µM]
14	CC(=O)OCC(=O)[C@@]12OC(C)(C)OC1CC1C3CC(F)C4=CC(=O)C=C[C@@]4(C)[C@@]3(F)C(O)C[C@]12C (some centres undefined)	19.6%	4.3%
15	COC(=O)c1sccc1NC(=O)Nc1cccc(F)c1	-5.4%	4.4%
16	CC1CC2C3CCC4=CC(=O)C=C[C@@]4(C)[C@]3(F)C(O)C[C@]2(C)[C@]1(O)C(=O)CO (some centres undefined)	20.2%&16.7%	19.2%&-0.2%
17	O=C(Nc1ccc(F)cc1)Nc1ccccc1F	-0.8%	5.4%
18	CC(=O)OCC1=C(C(=O)O)N2C(=O)[C@@H](NC(=O)CSc3ccncc3)[C@H]2SC1	-26.7%	9.5%
19	CC(N)(Cc1ccc(O)cc1)C(=O)O (centres undefined)	-6.1%	6.3%
20	Cc1nc(-c2ccc(NC(=O)c3cccs3)cc2)cs1	-0.1%	21.2%[38.3 µM]

#	Epigenetic reg	NPSR antagonist
11	-1.3%	.
12	.	.
13	8.2%	-4.5%[46.1 µM]
14	0.8%	.
15	-0.2%	-22.5%
16	0.0%&0.0%	.
17	1.1%	4.7%
18	-0.2%	-6.4%[46.1 µM]
19	-2.2%	?
20	4.4%	-7.4%[46.1 µM]

From compound 9 up to 20, copied from above:
#	compound	CBFb RUNX1 block	IMPase Li cell
9	CC[N+](C)(C)c1cccc(O)c1	13.2%	6.0%&8.2%&12.9%&3.5%
10	CC(C)(C#N)c1cc(Cn2cncn2)cc(C(C)(C)C#N)c1	2.8%	.
11	CC(=O)OCC(=O)[C@@]1(O)CCC2C3CCC4=CC(=O)C=CC4(C)C3C(O)C[C@]21C (some centres undefined)	12.4%	5.8%
12	C[C@@H]1[C@H](O)[C@@H](C)/C=C/C=C/C=C/C=C/C=C/C=C/C=C/[C@H](O[C@@H]2O[C@H](C)[C@@H](O)[C@H](N)[C@@H]2O)C[C@@H]2O[C@](O)(C[C@@H](O)C[C@@H](O)[C@H](O)CC[C@@H](O)C[C@@H](O)CC(=O)O[C@H]1C)C[C@H](O)[C@H]2C(=O)O	13.5%[21.7 µM]	-10.5%
13	Cn1c(=O)c(NCCO)c2c3c(cccc31)C(=O)c1ccccc1-2	20.5%	-29.6%[38.3 µM]
14	CC(=O)OCC(=O)[C@@]12OC(C)(C)OC1CC1C3CC(F)C4=CC(=O)C=C[C@@]4(C)[C@@]3(F)C(O)C[C@]12C (some centres undefined)	19.6%	4.3%
15	COC(=O)c1sccc1NC(=O)Nc1cccc(F)c1	-5.4%	4.4%
16	CC1CC2C3CCC4=CC(=O)C=C[C@@]4(C)[C@]3(F)C(O)C[C@]2(C)[C@]1(O)C(=O)CO (some centres undefined)	20.2%&16.7%	19.2%&-0.2%
17	O=C(Nc1ccc(F)cc1)Nc1ccccc1F	-0.8%	5.4%
18	CC(=O)OCC1=C(C(=O)O)N2C(=O)[C@@H](NC(=O)CSc3ccncc3)[C@H]2SC1	-26.7%	9.5%
19	CC(N)(Cc1ccc(O)cc1)C(=O)O (centres undefined)	-6.1%	6.3%
20	Cc1nc(-c2ccc(NC(=O)c3cccs3)cc2)cs1	-0.1%	21.2%[38.3 µM]

#	Epigenetic reg	NPSR antagonist
9	-4.5%	19.8%
10	1.1%	23.6%
11	-1.3%	.
12	.	.
13	8.2%	-4.5%[46.1 µM]
14	0.8%	.
15	-0.2%	-22.5%
16	0.0%&0.0%	.
17	1.1%	4.7%
18	-0.2%	-6.4%[46.1 µM]
19	-2.2%	?
20	4.4%	-7.4%[46.1 µM]

(cont.)
#	compound	CBFb RUNX1 block	IMPase Li cell
21	NC(=O)c1cccnc1	-4.0%&5.8%&5.2%	-2.9%&1.9%
22	CC(=O)OCC(=O)[C@@]1(O)CC[C@H]2[C@@H]3CCC4=CC(=O)CC[C@]4(C)[C@@H]3C(=O)C[C@@]21C	3.4%	-3.1%
23	CC(=O)OCC(=O)[C@@]1(O)CCC2C3CCC4=CC(=O)CC[C@]4(C)C3C(=O)C[C@]21C (some centres undefined)	-2.3%	-0.3%
24	CO/N=C1\CN(c2nc3c(cc2F)c(=O)c(C(=O)O)cn3C2CC2)CC1CN (centres undefined)	.	17.1%
25	CCN(CC)C(=O)N1CCN(C)CC1	-5.3%	14.2%&0.7%
26	CC1(C)O[C@@H]2C[C@H]3[C@H]4C[C@H](F)C5=CC(=O)C=C[C@@]5(C)[C@@H]4[C@H](O)C[C@]3(C)[C@]2(C(=O)CO)O1	1.4%[21.7 µM]	-1.7%
27	C[C@H]1[C@H](NC(=O)/C(=N/OC(C)(C)C(=O)O)c2csc(N)n2)C(=O)N1S(=O)(=O)O (stereo in doubt)	10.8%[21.7 µM]	-10.0%

#	Epigenetic reg	NPSR antagonist
21	-1.0%&1.6%	3.9%
22	1.4%	.
23	1.3%	.
24	-1.3%	.
25	0.0%	10.4%
26	0.3%[16.9 µM]	.
27	-1.4%[16.9 µM]	.

An excerpt, so the mix of outcomes need not match the whole.
